# Screening results (PubChem BioAssay)
# NOMO-1 viab – STK33 inhibitor candidate reducing NOMO-1 cell viability; inhibition, % (no concentration beside the values); NOMO-1 AML viability, CellTiter-Glo luminescence, 72 h; actives 7.5% (n = 37,000); AID 2330;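 active = most replicates above 80%; inconclusive = exactly half above 80%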;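 also: wells of about 30 µL received 25 nL stock; 0% = median of vehicle wells and 100% = reference inhibitor level; the first replicate is given; inactives centre near 10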
# * marks the source's active call; other numbers are inactive results; ? = inconclusive. An excerpt; count on the stated rates, not on these rows.
SMILES,NOMO-1 viab
C[C@H]1CN([C@@H](C)CO)C(=O)Cc2cc(NC(=O)CCN3CCOCC3)ccc2O[C@H]1CN(C)C,12
CC(C)(C)NC(=O)N1CCN(c2ccc(C#N)cn2)CC1,-1
C[C@@H]1CN([C@@H](C)CO)C(=O)c2cccc(NC(=O)Nc3ccc4c(c3)OCO4)c2O[C@H]1CN(C)C(=O)Nc1cccc2ccccc12,21
COc1ccc(NC(=O)N(C)C[C@@H]2OCCCC[C@@H](C)Oc3ccc(NC(=O)CCCCCC(=O)Nc4ccccc4N)cc3C(=O)N([C@H](C)CO)C[C@@H]2C)cc1,12
C[C@H](CO)N1C[C@H](C)[C@H](CN(C)CC2CCCCC2)Oc2c(NS(C)(=O)=O)cccc2C1=O,-22
C[C@H]1CN([C@@H](C)CO)C(=O)c2cc(NC(=O)Nc3ccc4c(c3)OCO4)ccc2O[C@@H]1CN(C)Cc1ccncc1,-9
C[C@H](CO)N1C[C@H](C)[C@H](CN(C)C)Oc2ccc(NC(=O)Cc3ccccc3)cc2C1=O,-3
C[C@@H]1CCCCO[C@H](CN(C)C(=O)c2ccncc2)[C@@H](C)CN([C@H](C)CO)C(=O)c2cc(NS(=O)(=O)c3cn(C)cn3)ccc2O1,6
C[C@@H]1CN([C@H](C)CO)C(=O)c2cccc(NS(=O)(=O)c3ccc(Cl)cc3)c2O[C@H]1CN(C)CC1CC1,10
C[C@H]1CN([C@@H](C)CO)C(=O)c2cccc(NC(=O)Nc3ccc4c(c3)OCO4)c2O[C@@H]1CN(C)C(=O)Nc1ccc2c(c1)OCO2,41
C[C@@H]1CN([C@H](C)CO)C(=O)c2cc(N(C)C)ccc2O[C@H]1CN(C)Cc1ccccc1,23
C[C@@H]1CN([C@H](C)CO)C(=O)c2cccc(NC(=O)c3nc4ccccc4s3)c2O[C@@H]1CN(C)Cc1ccc(Cl)c(Cl)c1,32
Cc1ccc(S(=O)(=O)Nc2cccc3c2O[C@@H](CN(C)S(=O)(=O)c2ccc(F)cc2)[C@H](C)CN([C@@H](C)CO)C3=O)cc1,-2
C[C@H]1CN([C@@H](C)CO)C(=O)c2cccc(N(C)C)c2O[C@@H]1CN(C)S(=O)(=O)c1ccc(F)cc1,3
C[C@H](CO)N1C[C@H](C)[C@@H](CN(C)S(=O)(=O)c2ccc(F)cc2)Oc2ccc(NC(=O)C3CCCCC3)cc2C1=O,-7
Cc1noc(C)c1S(=O)(=O)N(C)C[C@H]1Oc2ccc(NC(=O)CCCN(C)C)cc2C(=O)N([C@H](C)CO)C[C@@H]1C,1
Cc1ccc(S(=O)(=O)Nc2cccc3c2O[C@H](CN(C)C(=O)Nc2cccc4ccccc24)[C@@H](C)CN([C@H](C)CO)C3=O)cc1,19
C[C@H]1CN([C@@H](C)CO)C(=O)c2cccc(NC(=O)C3CCOCC3)c2O[C@H]1CN(C)Cc1ccc2c(c1)OCO2,9
C[C@@H]1CN([C@H](C)CO)C(=O)c2cccc(NS(=O)(=O)c3ccccc3)c2O[C@@H]1CN(C)C(=O)Nc1cccc2ccccc12,21
Nc1nnc(SCC(=O)Nc2cc(Cl)cc(Cl)c2)s1,-23
C[C@H](CO)N1C[C@H](C)[C@@H](CN(C)S(=O)(=O)c2cccs2)Oc2ccc(NC(=O)C3CC3)cc2C1=O,2
C[C@@H]1CN([C@H](C)CO)C(=O)c2cc(NC(=O)NC3CCCCC3)ccc2O[C@@H]1CN(C)Cc1ccc(C(=O)O)cc1,22
Cc1cccc(C2=NC(C(F)(F)F)(C(F)(F)F)c3c(n(C)c(=O)n(C)c3=O)N2)c1,10
COc1ccc(S(=O)(=O)N(C)C[C@H]2Oc3ccc(N(C)C)cc3C(=O)N([C@H](C)CO)C[C@@H]2C)cc1,21

# 6 structures already listed, sorted by count of non-hydrogen atoms, ascending:
SMILES,NOMO-1 viab
CC(C)(C)NC(=O)N1CCN(c2ccc(C#N)cn2)CC1,-1
Cc1cccc(C2=NC(C(F)(F)F)(C(F)(F)F)c3c(n(C)c(=O)n(C)c3=O)N2)c1,10
C[C@H](CO)N1C[C@H](C)[C@H](CN(C)CC2CCCCC2)Oc2c(NS(C)(=O)=O)cccc2C1=O,-22
C[C@H]1CN([C@@H](C)CO)C(=O)c2cccc(NC(=O)C3CCOCC3)c2O[C@H]1CN(C)Cc1ccc2c(c1)OCO2,9
C[C@@H]1CN([C@H](C)CO)C(=O)c2cc(NC(=O)NC3CCCCC3)ccc2O[C@@H]1CN(C)Cc1ccc(C(=O)O)cc1,22
C[C@@H]1CN([C@H](C)CO)C(=O)c2cccc(NS(=O)(=O)c3ccccc3)c2O[C@@H]1CN(C)C(=O)Nc1cccc2ccccc12,21

# Continuation.
SMILES,NOMO-1 viab
Cc1noc(C)c1NC(=O)Nc1cccc2c1O[C@H](CN(C)C(=O)Nc1ccccc1)[C@H](C)CN([C@H](C)CO)C2=O,16
C[C@@H]1CN([C@H](C)CO)C(=O)Cc2cc(NC(=O)Cc3cn(C)c4ccccc34)ccc2O[C@H]1CN(C)S(=O)(=O)c1cccs1,9
CC(C)c1cc(CN2CCN(c3ccccc3)CC2)c(O)c(CN2CCN(c3ccccc3)CC2)c1,65
C[C@H]1CN([C@@H](C)CO)C(=O)c2cc(NS(=O)(=O)c3ccccc3)ccc2O[C@@H]1CN(C)C(=O)Nc1ccc(F)cc1,18
C[C@H](CO)N1C[C@H](C)[C@H](CN(C)Cc2ccc(Cl)c(Cl)c2)Oc2ccc(NC(=O)Cc3cn(C)c4ccccc34)cc2CC1=O,65
CCOc1ccc(C(C)=O)cc1CSc1nc(C)cc(=O)[nH]1,27
C[C@H](CO)N1C[C@H](C)[C@@H](CN(C)C(=O)Nc2ccccc2)Oc2ccc(NS(=O)(=O)c3ccccc3)cc2C1=O,-25
C[C@@H]1CN([C@@H](C)CO)C(=O)Cc2cc(NS(C)(=O)=O)ccc2O[C@@H]1CN(C)C(=O)Nc1ccc(F)cc1,-13
C[C@H]1CN([C@@H](C)CO)C(=O)c2cc(NS(C)(=O)=O)ccc2O[C@@H]1CN(C)Cc1ccc(Oc2ccccc2)cc1,12
C[C@@H]1CN([C@@H](C)CO)C(=O)c2cccc(NC(=O)Nc3cccc4ccccc34)c2O[C@H]1CN(C)C(=O)Nc1ccccc1,25
C[C@@H]1CN([C@H](C)CO)C(=O)Cc2cc(NS(=O)(=O)c3ccc(F)cc3)ccc2O[C@H]1CN(C)Cc1ccncc1,6
C[C@H](CO)N1C[C@H](C)[C@H](CN(C)S(=O)(=O)c2cn(C)cn2)Oc2c(NC(=O)Nc3ccccc3)cccc2C1=O,8
COc1ccc(NC(=O)N(C)C[C@@H]2OCCCC[C@@H](C)Oc3ccc(NC(=O)Nc4c(C)noc4C)cc3C(=O)N([C@H](C)CO)C[C@@H]2C)cc1,6
C[C@@H]1CN([C@@H](C)CO)C(=O)c2cc(NC(=O)CCC(F)(F)F)ccc2O[C@H]1CN(C)C(=O)Nc1ccccc1,-10
CSc1nc2ccc(S(=O)(=O)NCCOc3ccc(Cl)cc3)cc2s1,1
C[C@H]1CN([C@@H](C)CO)C(=O)c2cc(NC(=O)Nc3ccc(F)cc3)ccc2O[C@H]1CN(C)C(=O)Nc1cccc2ccccc12,17
COc1ccc(S(=O)(=O)Nc2ccc3c(c2)C(=O)N([C@@H](C)CO)C[C@H](C)[C@H](CN(C)C(=O)Nc2c(C)noc2C)O3)cc1,-1
Cc1sc(NC(=O)c2cc(-c3cccnc3)nc3ccc(Cl)cc23)c(C(N)=O)c1-c1ccccc1,29
CC(C)NC(=O)Nc1ccc2c(c1)C(=O)N([C@H](C)CO)C[C@H](C)[C@@H](CN(C)Cc1ccccc1)O2,1
Cc1ccc(S(=O)(=O)NC(C)C(=O)Nc2cccc([N+](=O)[O-])c2)cc1 (centres undefined),11
COc1ccc(CN(C)C[C@H]2Oc3c(NC(=O)c4nc5ccccc5s4)cccc3C(=O)N([C@@H](C)CO)C[C@@H]2C)cc1,39
Cc1cccnc1NC(=O)C(C)Oc1ccccc1 (centres undefined),-2
N#C/C(=C\c1ccc(Cl)cc1)c1ccccc1,17
COc1ccc(NC(=O)CNC(=O)c2ccc(C(C)(C)C)cc2)cc1,18
C[C@H]1CN([C@@H](C)CO)C(=O)c2cc(NS(C)(=O)=O)ccc2O[C@H]1CN(C)C(=O)Nc1ccc(F)cc1,-20
COc1ccc(OC)c(C(=O)CCC(=O)Nc2ccc(Cl)cc2)c1,8
COc1ccc(S(=O)(=O)N(C)C[C@@H]2Oc3ccc(NC(=O)Nc4cccc5ccccc45)cc3CC(=O)N([C@H](C)CO)C[C@@H]2C)cc1,71
C[C@H](CO)N1C[C@H](C)[C@@H](CN(C)C(=O)Nc2ccc3c(c2)OCO3)Oc2c(NC(=O)Nc3ccccc3)cccc2C1=O,10
C[C@H]1CN([C@@H](C)CO)C(=O)c2cccc(NC(=O)Nc3ccccc3)c2O[C@@H]1CN(C)S(=O)(=O)c1cccs1,11
COc1ccc2oc3ccccc3c(=O)c2c1,?
CCOC(=O)/N=C(/c1ccc(Cl)cc1)c1cc2ccccc2cn1,63
C[C@@H]1CN([C@@H](C)CO)C(=O)Cc2cc(N(C)C)ccc2O[C@@H]1CN(C)C(=O)Nc1ccc2c(c1)OCO2,-16
Cc1cc(C(=O)Nc2cccc3c2O[C@@H](CN(C)S(=O)(=O)c2cccs2)[C@@H](C)CN([C@H](C)CO)C3=O)n(C)n1,10
COc1ccc(NC(=O)N(C)C[C@@H]2Oc3ccc(NC(=O)C4CCCCC4)cc3C(=O)N([C@@H](C)CO)C[C@H]2C)cc1,-10
C[C@H]1CN([C@@H](C)CO)C(=O)c2cccc(NC(=O)Nc3cccc4ccccc34)c2O[C@H]1CN(C)S(=O)(=O)c1cccs1,34
COc1ccc(C(C)C)cc1S(=O)(=O)NCCN1CCOCC1,-7
C[C@H](CO)N1C[C@H](C)[C@@H](CN(C)Cc2ccc3c(c2)OCO3)Oc2ccc(NC(=O)CCC(F)(F)F)cc2C1=O,19
CCNC(=O)N1CCN(CCCC(c2ccc(F)cc2)c2ccc(F)cc2)CC1,73
Nc1cc(N)nc(SCc2cccnc2)n1,-6
COc1cc(CO)ccc1OCc1cccc(C(=O)O)c1,19
C[C@H](CO)N1C[C@H](C)[C@H](CN(C)C(=O)Nc2ccccc2)Oc2ccc(NC(=O)Nc3ccccc3)cc2C1=O,2
Cc1ccc(S(=O)(=O)N(C)C[C@H]2Oc3ccc(NC(=O)NC4CCCCC4)cc3CC(=O)N([C@@H](C)CO)C[C@H]2C)cc1,20
C=CCn1c(SCc2ccccc2C#N)nnc1-c1ccccc1O,33
C[C@@H]1CN([C@H](C)CO)C(=O)c2cc(NS(=O)(=O)c3cccs3)ccc2O[C@@H]1CN(C)S(=O)(=O)c1ccc(F)cc1,-4
Cc1cc(Cl)ccc1NC(=O)CN(c1cccc(Cl)c1)S(C)(=O)=O,9
Cn1c(SCC(=O)N2c3ccccc3Sc3ccccc32)nnc1-c1ccccc1Cl,22
O=C(COc1ccc(F)cc1)Nc1ncccn1,-9
Cc1ccc(S(=O)(=O)N(C)C[C@@H]2Oc3c(NC(=O)Nc4ccc(C(F)(F)F)cc4)cccc3C(=O)N([C@@H](C)CO)C[C@H]2C)cc1,35
COc1ccc(NC(=O)Nc2ccc3c(c2)CC(=O)N([C@@H](C)CO)C[C@H](C)[C@H](CN(C)Cc2ccc(-c4ccccc4)cc2)O3)cc1,128*
CC(C)Cc1cc(-c2cccc(Br)c2)c(C#N)c(N)n1,33
CCOC(=O)CC(c1ccccc1)S(=O)(=O)O (centres undefined),7
COc1ccccc1NC(=O)CSc1nc2ccccc2c(=O)n1-c1ccc(C)cc1,-6
COc1ccc(NC(=O)Nc2cccc3c2O[C@@H](CN(C)Cc2ccc(C(F)(F)F)cc2)[C@H](C)CN([C@@H](C)CO)C3=O)cc1,98*
COc1ccc(NC(=O)Nc2cccc3c2O[C@@H](CN(C)C(=O)Nc2cccc4ccccc24)[C@H](C)CN([C@@H](C)CO)C3=O)cc1,33
C[C@@H]1CN([C@H](C)CO)C(=O)Cc2cc(NS(=O)(=O)c3ccc(F)cc3)ccc2O[C@H]1CN(C)S(=O)(=O)c1cn(C)cn1,11
C=C1C(=O)O[C@H]2C1[C@H](OC(=O)/C(C)=C/CO)C/C(C)=C\CC[C@@]1(CO)OC21 (some centres undefined),93*
COc1ccc(S(=O)(=O)NCCc2ccc(OC)c(OC)c2)cc1Cl,2
C[C@@H]1CN([C@@H](C)CO)C(=O)c2cc(N(C)C)ccc2O[C@H]1CN(C)Cc1ccc(C(F)(F)F)cc1,30
C[C@@H]1CN([C@H](C)CO)C(=O)c2cc(NS(=O)(=O)c3ccc(Cl)cc3)ccc2O[C@@H]1CN(C)Cc1ccc(C(=O)Nc2ccccc2N)cc1,109*
C[C@@H]1CN([C@H](C)CO)C(=O)Cc2cc(NC(=O)Nc3ccccc3)ccc2O[C@@H]1CN(C)C(=O)Nc1ccccc1,-7

# The results go on:
SMILES,NOMO-1 viab
CCOc1ccc(Oc2nc(NCC(C)C)nc(N(C)C)n2)nn1,5
O=C(CNC(=O)c1cn(-c2ccccc2)nc1-c1ccccc1)c1ccccc1,6
COc1ccc2nc(Nc3nc(CSc4ccc(Cl)cc4)cc(=O)[nH]3)nc(C)c2c1,84*
COc1ccc(-c2cc(C(=O)OCc3ccco3)c3ccccc3n2)cc1OC,67
Cc1noc(C)c1NC(=O)Nc1ccc2c(c1)C(=O)N([C@@H](C)CO)C[C@@H](C)[C@H](CN(C)Cc1ccc(-c3ccccc3)cc1)O2,15
C[C@@H]1CN([C@H](C)CO)C(=O)Cc2cc(NC(=O)C3CC3)ccc2O[C@H]1CN(C)Cc1ccncc1,2
COc1ccc(COCC(O)CS(=O)(=O)Cc2ccc(C)cc2)cc1 (centres undefined),-17

# Entries listed so far with a tert-butyl group (two):
SMILES,NOMO-1 viab
CC(C)(C)NC(=O)N1CCN(c2ccc(C#N)cn2)CC1,-1
COc1ccc(NC(=O)CNC(=O)c2ccc(C(C)(C)C)cc2)cc1,18
